Biofilm kill mix – mixtures killing C. albicans biofilm; C. albicans biofilm persisters + clotrimazole, fluorescence viability; primary screen in compound mixtures of four per well; inhibition, % at 7.6 µM; hit rate 0.02% among 120,000;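 active means inhibition above 30.3% in the primary screen of four-compound pools, then above 30% when the compound was retested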;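 further: compounds exposed to preformed 24 h biofilms for 48 h; the number belongs to the whole pool; some results filed as inactive read as strong as hits; inactives centre near 12; 0% = biofilm with clotrimazole alone and 100% = kill control; retested singly at about 60 µM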
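Assay system: C. albicans biofilms / Medium: RPMI/MOPS medium, pH 7.0 / Schedule: biofilm formation 24 h, compound exposure 48 h, 37 °C / Measured by: Alamar Blue fluorescence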
The depositor's hits bear a star; & = joins results of further samples. An excerpt; count on the stated rates, not on these rows.

nr | canonical_smiles | Biofilm kill mix
1 | O=C(/C=C/c1cn(CC(O)CN2CCOCC2)c2ccccc12)c1cccs1 (configuration not stated) | 20
2 | COCCCn1c(C)cc(C(=O)COC(=O)CCc2nc3ccccc3c(=O)[nH]2)c1C | 12
3 | COc1ccc(/C=C2/SC(=O)N(CC(=O)NCCC(C)C)C2=O)cc1OC | 2
4 | CCOCC(=O)Nc1cc(Cl)ccc1C | 0
5 | COC(=O)C12CCC(C)(c3nc4ccccc4nc31)C2(C)C (configuration not stated) | -2
6 | Cc1ccc(Sc2ncccc2COC(=O)NC(C)C)cc1 | 14
7 | COc1ccc(C2C(C(=O)c3cccs3)=C(O)C(=O)N2c2cccc(C)n2)cc1OC (configuration not stated) | 24
8 | CCOC(=O)C(Cc1ccccc1)C(=O)Nc1cccc(C)c1 (configuration not stated) | 11
9 | Clc1ccc(-n2nnnc2-c2cnc3ccc(Cl)cc3c2-c2ccccc2)cc1 | 10
10 | Cc1ccc(-n2c(-c3cccs3)nc3nc4ccccc4nc32)cc1 | 18
11 | CC1=C(C(=O)OCC2CCCO2)C(c2ccccc2)C2=C(CCCC2=O)N1 (configuration not stated) | 9
12 | Cc1ccc(S(=O)(=O)N(CC(=O)Nc2ccccc2-c2ccccc2)c2ccc(C)cc2C)cc1 | 15
13 | COC(=O)Nc1ccc(S(=O)(=O)NCCCCCC(=O)O)cc1 | 23
14 | CC(C)(CNC(=O)COc1ccccc1Cc1ccccc1)N1CCOCC1 | 7
15 | CCOC(=O)c1ccc(NC(=O)c2nc[nH]c2C(=O)NCc2ccccc2)cc1 | 9
16 | O=C(N/N=C/c1cc(Br)c(Br)o1)c1ccc2c(c1)OCCO2 | -4
17 | Cc1cc(N)n2nc(-c3ccccc3)cc2n1 | 10
18 | COc1ccc(C(=O)CC2OC(=O)c3ccccc32)cc1OC (configuration not stated) | 19
19 | Cc1ccccc1OCC(O)Cn1c(=N)n(Cc2ccccc2)c2ccccc21 (configuration not stated) | 30*
20 | O=C1C=CC(O)(c2cc(=O)c3c(O)cc(O)cc3o2)C=C1 | 20
21 | COc1ccccc1COC(=O)N/C=C/c1ccco1 | -18
22 | COc1ccc(Oc2ccc(NC(=O)c3ccccc3C)cc2)cc1 | 2
23 | CCC(C)(C(=O)NC1CCCCC1)N(Cc1cccs1)C(=O)c1ccccn1 (configuration not stated) | 13
24 | O=C1CN(C(=O)COc2cccc(F)c2)c2ccccc2N1 | 14
25 | Cc1nn(C)c(Cl)c1/C=N/OC(=O)c1ccc(F)cc1 | 15
26 | CN(C)S(=O)(=O)c1ccc(Cl)c(NC(=O)CSc2nc3c(cc2C#N)C(=O)CCC3)c1 | -11
27 | CCOC(=O)c1cc(Sc2ccccc2N)cc(C(=O)OCC)n1 | 21
28 | CC(=O)Nc1ccc(NC(=O)C(C)OC(=O)CCc2nc3ccccc3s2)cc1 (configuration not stated) | 9
29 | O=C(COC(=O)C1CC2C=CC1C2)NCc1ccccc1Cl (configuration not stated) | 10
30 | COc1ccc(OC)c(-c2csc(NC(=O)Cn3[nH]c(=O)c4ccccc4c3=O)n2)c1 | -6

In the list so far, five have a Cl atom.
nr | canonical_smiles | Biofilm kill mix
4 | CCOCC(=O)Nc1cc(Cl)ccc1C | 0
9 | Clc1ccc(-n2nnnc2-c2cnc3ccc(Cl)cc3c2-c2ccccc2)cc1 | 10
25 | Cc1nn(C)c(Cl)c1/C=N/OC(=O)c1ccc(F)cc1 | 15
26 | CN(C)S(=O)(=O)c1ccc(Cl)c(NC(=O)CSc2nc3c(cc2C#N)C(=O)CCC3)c1 | -11
29 | O=C(COC(=O)C1CC2C=CC1C2)NCc1ccccc1Cl (configuration not stated) | 10

Look-ups from above:
Cc1nn(C)c(Cl)c1/C=N/OC(=O)c1ccc(F)cc1 @ Biofilm kill mix = 15
COC(=O)Nc1ccc(S(=O)(=O)NCCCCCC(=O)O)cc1 @ Biofilm kill mix = 23
COCCCn1c(C)cc(C(=O)COC(=O)CCc2nc3ccccc3c(=O)[nH]2)c1C @ Biofilm kill mix = 12

(list continues)
nr | canonical_smiles | Biofilm kill mix
31 | CC1CCN(Cc2nc(-c3ccc(Cl)cc3)no2)CC1 | 22
32 | COc1ccc(S(=O)(=O)n2nc(OC(C)=O)cc2N)cc1 | 17
33 | COc1ccc(S(=O)(=O)N2CCCCC2)cc1NS(=O)(=O)c1cc(Cl)ccc1Cl | -7
34 | CC(C)S(=O)(=O)c1cnc(-c2cccnc2)nc1N | 14
35 | Cc1cccc(NC(=S)N(CCCN2CCOCC2)C(C)c2cc3ccccc3o2)c1C (configuration not stated) | -2
36 | CCCN1C[C@H](CSC)C[C@@H]2c3cccc4[nH]cc(c34)C[C@H]21 | 4
37 | CN(c1cccc(NC(=O)c2ccccc2N(C)S(=O)(=O)c2ccccc2)c1)S(C)(=O)=O | 5
38 | CCCCOc1cccc(C2C(C(=O)c3cccs3)=C(O)C(=O)N2Cc2cccnc2)c1 (configuration not stated) | 15
39 | O=C(O)C(=O)/C(=C\c1cccc(Cl)c1)c1ccc2ccccc2n1 | 19
40 | O=c1oc2ccccc2cc1-c1ccc(O)cc1O | 8
41 | FC(F)(F)c1cnc(Sc2ncn[nH]2)c(Cl)c1 | -2
42 | O=C(NNC1=NCCC1)c1cccc(S(=O)(=O)N2CCOCC2)c1 | -7
43 | Cc1ccccc1-n1nnnc1SCC(=O)N(C)C1CCS(=O)(=O)C1 (configuration not stated) | 18
44 | CC(C)CNS(=O)(=O)c1cc(C(=O)OCC(=O)N(C)C2CCS(=O)(=O)C2)c(Cl)cc1Cl (configuration not stated) | 12
45 | CCOC(=O)C1=C(C)NC(C)=C(C(=O)OC)C1c1ccco1 (configuration not stated) | 4
46 | COc1cccc(C(=O)NC2CCCC2)c1 | 9
47 | C/C(CC(=O)NCCCN1CCOCC1)=N\NC(=O)COc1ccc(C)cc1 | 5
48 | CC(=O)Oc1ccc(C(=O)[C@H]2[C@H]3C(=O)N(c4ccc(C)cc4C)C(=O)[C@H]3[C@@H]3C=CC=NN32)cc1 | 44
49 | Cc1ccc(N/C=C/c2onc(C)c2[N+](=O)[O-])cc1 | 11
50 | COc1cc(/C=N/NC(=O)Cn2cnc3ccccc3c2=O)ccc1O | 10
51 | CCOc1nc(NCCO)nc(Nc2ccccc2F)n1 | 7
52 | COc1cc(/C=C/C(=O)NCCc2ccc(S(N)(=O)=O)cc2)ccc1OCC#N | 9
53 | O=C(Nc1ccccc1Cl)c1ccc(-n2cccn2)c([N+](=O)[O-])c1 | 10
54 | O=C(NCc1ccccc1)C1=C[C@@H](c2csc3ccccc23)C[C@@H](OCc2ccc(CO)cc2)O1 | 19
55 | COc1cccc(/C=C/c2ccc3ccccc3n2)c1OC(C)=O | 16
56 | N#C/C(=C(/O)c1cccs1)c1nnc2n1CCCCC2 | 15
57 | Cc1ccc(N(Cc2cc(=O)[nH]c3ccccc23)C(=O)C(C)C)cc1 | 21
58 | O=C(Nc1cccc(CCc2ccccn2)c1)c1ccc(Cl)cc1 | 43
59 | O=C(C1=C[C@H](c2ccc3c(c2)OCO3)C[C@H](OCCCCO)O1)N1CCN(Cc2ccc3c(c2)OCO3)CC1 | 13
60 | O=C1CSC(=S)N1/N=C/c1ccc(O)c(O)c1O | 17
61 | CC(Sc1ncc(C(F)(F)F)cc1Cl)C(=O)NC(N)=O (configuration not stated) | 10
62 | O=C(COc1ccc(/C=N/NS(=O)(=O)c2ccccc2)cc1)N1CCOCC1 | 16
63 | N#C/C(=C\c1ccc[nH]1)C(=O)N1CCCCC1 | 14
64 | COc1ccc(Cl)cc1C(=O)Nc1nc2ccc(S(C)(=O)=O)cc2s1 | -6
65 | COc1ccccc1NC(=O)C1=C(C)NC(SCC(=O)Nc2ccc(C(=O)O)cc2)=C(C#N)C1c1cccs1 (configuration not stated) | 19
66 | COc1ccccc1NC(=O)CCN1CC(C)OC(C)C1 (configuration not stated) | 19
67 | CCSc1ccccc1C(=O)N1CCN(c2ccc([N+](=O)[O-])cc2)CC1 | 11
68 | CCOc1cc(NC(=S)NCCCOC)c(OCC)cc1NC(=O)c1cccs1 | 10
69 | CCC(C)(C)NC(=O)c1ccccc1Oc1ccccc1 | -3
70 | O=c1c2ccccc2nnn1Cc1ccc(Br)cc1 | 7
71 | CC1CCCCC1NC(=O)c1cc2ccccc2o1 (configuration not stated) | -2
72 | O=C(NN1CCN(Cc2ccccc2Cl)CC1)c1ccc(Br)cc1 | 16
73 | CCOC(=O)c1ccc(NC(=O)COc2ccccc2CNCCO)cc1 | 21
74 | FCCCOc1ccc(-c2ccnc3ncnn23)cc1 | 17
75 | Cc1cc(NC(=O)CSc2nnc(-c3cccnc3)n2Cc2ccccc2)no1 | 18
76 | O=S1(=O)CCC(NC(=S)N2CCCCCC2)C1 (configuration not stated) | -2
77 | CC(=O)/C(=C(/O)c1ccccc1)c1nc2ccccc2[nH]1 | 19
78 | CCN(CC)C(=O)CSc1ncnc2sccc12 | 11
79 | O=[N+]([O-])c1ccc(O)c(C=Nc2ccc3oc(Cc4ccc(Cl)cc4)nc3c2)c1 | 5
80 | CC(C)N(C1=CC(=O)OC12CCCCC2)C(C)C | 15
81 | Cc1nonc1CN(C)C(=O)c1ccc(OC2CCN(Cc3ccccn3)CC2)cc1 | 10
82 | CCc1ccc(OCCOCC(O)CN(CCO)CCO)cc1 (configuration not stated) | 17
83 | CCOc1ccc(CN(C)CC(=O)Nc2cc(C)c(C)cc2[N+](=O)[O-])cc1 | 9
84 | Cc1cccc(C2Nc3ccccc3C(=O)N2c2ccc(F)cc2)n1 (configuration not stated) | 16
85 | CS(=O)(=O)N1CCN(c2ccc([N+](=O)[O-])c(NCc3cccnc3)c2)CC1 | 14
86 | COc1ccccc1C(=O)NNC1CC(=O)N(c2ccc3c(c2)OCCO3)C1=O (configuration not stated) | 7
87 | COc1cc([N+](=O)[O-])cc(/C=N/NC(=O)Cn2nccc2C)c1O | 27
88 | C=CCOc1ccc(Cl)cc1CNC1CCCC1 | 7
89 | O=C(N/N=C/c1ccccn1)c1ccc(NC(=O)c2cccc([N+](=O)[O-])c2)cc1 | 6
90 | OC1(CC#CCN2CCCCC2)c2ccccc2-c2ccccc21 | 23

(continued)
nr | canonical_smiles | Biofilm kill mix
91 | O=C(NCCc1c[nH]c2ccccc12)C(=O)NCC(c1ccco1)N1CCN(c2ccccc2)CC1 (configuration not stated) | 4
92 | Cc1cccc(OCC(=O)NC2CCCc3ccccc32)c1C (configuration not stated) | 15
93 | Cc1cc2c(nn1)CCc1c-2no[n+]1[O-] | 29
94 | CC(=O)c1sc(NC(=O)c2ccccc2F)nc1-c1ccccc1 | 3
95 | Cc1cc(NS(=O)(=O)c2ccc(NC(=S)NC(=O)c3ccccc3)cc2)no1 | 13
96 | CCOC(=O)CSC1=NC(=O)/C(=C/c2ccc(OC)cc2)S1 | 6
97 | CC(C)C(=O)Nc1ccc2c3c(cccc13)CC2 | 23
98 | Cc1ccc2oc(-c3cccc(N)c3)nc2c1 | 10
99 | CCOC(=O)c1nnn(-c2nonc2N)c1-c1ccc(F)cc1 | 16
100 | Cc1cc2oc(C(=O)Nc3ccc(S(N)(=O)=O)cc3)c(C)c2cc1Cl | 29
101 | CC(=O)[C@@H]1[C@@H](C(=O)c2ccccc2)[C@]2(C(=O)Nc3ccccc32)[C@H]2C=Cc3cc(F)ccc3N12 | 21
102 | COc1ccc(Cc2c(Cl)ncnc2Cl)cc1 | 13
103 | CCc1c(C)nc2cc(-c3cc(OC)cc(OC)c3)nn2c1N1CCN(CCN2CCOCC2)CC1 | 21
104 | CC1(C)C(C#N)=C(N)Oc2c1c(=O)oc1ccccc21 | -4
105 | CC(CN1CCCC1)C(=O)NN (configuration not stated) | 11
106 | COc1ccc2c(c1)CCC1=C2NC(=S)NC1c1ccc(N(C)C)cc1 (configuration not stated) | 2
107 | Cc1ccc(NC(=O)c2cc(S(=O)(=O)NCCC3=CCCCC3)ccc2F)cc1 | 25
108 | Cc1ccc(NC(=O)c2ccc([N+](=O)[O-])cc2)cc1S(=O)(=O)N(C)C | 2
109 | Cc1ccc(C(=O)Nc2ccccc2)cc1S(=O)(=O)Nc1ccc(Cl)cn1 | 8
110 | O=C(c1ccccc1)c1cnc2ccc(Cl)cc2c1N1CCOCC1 | 3
111 | COc1ccc(NC(=S)Nc2ccccc2)cn1 | 24
112 | O=C(C1=C(O)C(=O)N(c2nccs2)C1c1ccccc1)c1cc2ccccc2o1 (configuration not stated) | 13
113 | CCOC(=O)c1cc2cc([N+](=O)[O-])ccc2oc1=O | 18
114 | CCN1C(=O)CS/C1=N\S(=O)(=O)c1ccccc1 | 7
115 | O=C(NNc1ncc(C(F)(F)F)cc1Cl)c1ccc(Cl)c(Cl)c1 | 24
116 | CC(C)(C)NC(=O)NC(=O)COC(=O)CCC1CCCC1 | 4
117 | Cc1ccc(-c2nnn(CC(=O)N3CCCCC3)n2)o1 | 13
118 | CN(C)/C=N/NC(=O)c1ccc(Cl)cc1 | -2
119 | O=S(=O)(Cc1cc(NCc2ccccc2)nc(-c2ccccn2)n1)c1ccccc1 | -2
120 | CC(=O)Nc1ccc2c(CSc3nnc(N)s3)cc(=O)oc2c1 | -2

Three structures from above, arranged by SMILES length, ascending.
nr | canonical_smiles | Biofilm kill mix
118 | CN(C)/C=N/NC(=O)c1ccc(Cl)cc1 | -2
114 | CCN1C(=O)CS/C1=N\S(=O)(=O)c1ccccc1 | 7
96 | CCOC(=O)CSC1=NC(=O)/C(=C/c2ccc(OC)cc2)S1 | 6

Other results.
nr | canonical_smiles | Biofilm kill mix
121 | CCCCCc1cc(=O)oc2c(C(CCN(CC)CC)c3ccc(N(C)C)cc3)c(OC)cc(OC)c12 (configuration not stated) | 4
122 | CCN(CC)S(=O)(=O)c1ccc(OC)c(NC(=O)c2cc3c(=O)n4ccccc4nc3s2)c1 | -3
123 | COC(=O)CSc1nc(C)c2c(n1)CCCC2 | 15
124 | CC1CC(C)CN(c2nc(N(C)c3ccccc3)nc(N)c2[N+](=O)[O-])C1 (configuration not stated) | 15
125 | CC(=O)OCC(=O)c1c[nH]c2ccccc12 | 29
126 | CC(C)CCC(C(=O)O)C(C)CC(=O)NNC(=O)c1ccco1 (configuration not stated) | 24&14
127 | Brc1nc(Br)n(Cc2ccccc2)n1 | 11

Source: PubChem
